# Bioassay records deposited in PubChem by National Center for Advancing Translational Sciences (NCATS).
# miR-21 reporter: miR-21 reporter, rising signal; HeLa miR-21 FLuc reporter, luciferase, 48 h; Potency, µM (highest dose often 38.3 µM), without a hit: at the highest dose reporter change, positive = more light; 340,000 tested, under 10 active; active = well fitted rising curve with a large enough effect; inconclusive = small, poorly fitted or top-dose-only effect; inactive = no such curve, though single readings can be large or run the other way;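 also: % of control where 0% means no effect; miR-21 action dims this reporter so a rising signal means less miR-21 action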
#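 HeLa cells endogenously expressing miR-21, stably carrying CMV-driven firefly luciferase with a downstream miR-21 binding site, 2000 cells/well. Titrations up to approximately 40 uM, 48 hours; luciferase luminescence read.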
# * marks the source's active call; other numbers are inactive results; u = inconclusive. Not all compounds are listed, so the mix of outcomes need not match the whole.
SMILES,miR-21 reporter
CC1=C(C(=O)Nc2ccc(Cl)cc2)C(c2cccs2)n2nc(SCc3cccc(C)c3)nc2N1 (stereo unspecified),-2%
Cc1ccccc1C(=O)Nc1nc(-c2ccc(Br)cc2)ns1,11%
CCOC(=O)c1cc(OC(=O)c2ccccc2F)n(-c2ccccc2)n1,-1%
CCc1ccc(C(=O)c2cnc3ccc(C)cc3c2S(=O)(=O)c2ccc(OC)cc2)cc1,8%
CCOCCc1nn2c(=O)cc(COC(=O)c3ccccc3NC(=O)c3ccc(C)cc3)nc2s1,-18%
Cc1nn(C)c2c1c(C(F)(F)F)cc(=O)n2CC(=O)NCCC(C)C,-4%
O=C(c1ccc(CSc2nc3ccncc3n2Cc2ccc(F)cc2)cc1)N1CCCCCC1,10%
Cc1c(C(=O)OC2CCCCC2)[nH]c2c1C(=O)CC(c1ccc(C(C)(C)C)cc1)C2 (stereo unspecified),1%
CCCN1CCN(c2cc3c(cc2F)c(=O)c(S(=O)(=O)c2ccc(Cl)cc2)cn3C)CC1,-6%
CCc1ccc(NC(=O)CC2C(=O)N(c3ccc(Cl)cc3)C(=O)N2Cc2cccs2)cc1 (stereo unspecified),0%
Cc1ccc(Cn2cc(S(=O)(=O)c3ccc(C)cc3)c(=O)c3cc(F)c(N4CCCC4)cc32)cc1,1%
CCn1cc(S(=O)(=O)c2cccc(Cl)c2)c(=O)c2cc(F)c(N3CCC(C)CC3)cc21,0%

# Reformatted with values ahead of the structure: part of the list above.
miR-21 reporter	canonical_smiles
-2%	CC1=C(C(=O)Nc2ccc(Cl)cc2)C(c2cccs2)n2nc(SCc3cccc(C)c3)nc2N1 (stereo unspecified)
11%	Cc1ccccc1C(=O)Nc1nc(-c2ccc(Br)cc2)ns1
-1%	CCOC(=O)c1cc(OC(=O)c2ccccc2F)n(-c2ccccc2)n1
8%	CCc1ccc(C(=O)c2cnc3ccc(C)cc3c2S(=O)(=O)c2ccc(OC)cc2)cc1
-18%	CCOCCc1nn2c(=O)cc(COC(=O)c3ccccc3NC(=O)c3ccc(C)cc3)nc2s1
-4%	Cc1nn(C)c2c1c(C(F)(F)F)cc(=O)n2CC(=O)NCCC(C)C

# Next records:
SMILES,miR-21 reporter
CCOc1ccc(NC(=O)CN2C(=O)C(c3ccccc3)=NC23CCCCCC3)cc1,u
CCCCOc1cccc(C(=O)N(Cc2ccc(Cl)cc2)C2CCS(=O)(=O)C2)c1 (stereo unspecified),25%
CCOC(=O)Cn1c(=O)oc2cc(S(=O)(=O)N3CCN(c4ccccc4F)CC3)ccc21,3%
Cc1ccc(NC(=O)CN2Cc3ccccc3C2=O)c(C)c1,2%
COC(=O)c1c(SC)nc2ccccc2c1OCc1ccc(C)cc1,-1%
Cc1cccc(NC(=O)CSc2nc3ccc(NC(=O)COc4ccccc4F)cc3s2)c1,27%
CCN1CCN(c2ncc3c(n2)CCN(Cc2ccc(C)s2)C3)CC1,-3%
Cc1cccn2c(=O)cc(CSc3nnc(NC(=O)COc4ccc(F)cc4)s3)nc12,-4%
CSc1ccc(/C=C/c2nc3ccccc3n2S(=O)(=O)c2ccc(Br)cc2)cc1,u
COc1ccccc1N1CCN(c2ccc(=O)n(CC(=O)NCc3ccc(OC(C)C)cc3)n2)CC1,25%
CCOc1ccc(CCNC(=O)c2cccc(Nc3nc4ccccc4nc3-n3nc(C)cc3C)c2)cc1OCC,1%
COc1cc(Cl)c(C)cc1NC(=O)c1ccc2c(Cl)c3c(nc2c1)CCC3,-6%
O=C(NCCn1cc(SCc2ccc(C(F)(F)F)cc2)c2ccccc21)c1ccccc1F,u
O=C(NCc1ccc2c(c1)OCO2)c1ccc2c(c1)N(Cc1ccccc1)C(=O)c1ccccc1S2=O (stereo unspecified),-8%
O=c1[nH]c2ccc(NCc3ccccc3F)cc2[nH]1,-8%
Cc1ccc(NC(=O)c2c(C)oc3ccc(O)c(CN4CCCCCC4)c23)c(C)c1,22%
COc1ccc(Cn2nnc(C(=O)Nc3cc(OC)ccc3OC)c2N)cc1,-30%
O=C(CSc1nc(=O)n(Cc2ccncc2)c2c1CCC2)Nc1cccc(F)c1,2%
O=C(NC(=S)N1CCN(c2ccccc2)CC1)c1ccccc1,-8%
Cc1c(C(=O)N(C)C)sc2c1c(=O)n(-c1ccc(Cl)c(Cl)c1)c(=O)n2CC(=O)N1CCCCC1C (stereo unspecified),-5%
CCOCCc1nn2c(=O)cc(COC(=O)c3ccc4c(c3)OCO4)nc2s1,-3%
Cc1ccc(-n2nc(C)c3c(C)c(CCC(=O)NCc4ccc(Cl)cc4)c(C)nc32)cc1,1%
COCCNC(=O)c1ccc2c(c1)N(Cc1c(F)cccc1Cl)C(=O)c1ccccc1S2,-3%
Cc1cc2c(cc1S(=O)(=O)Nc1cccc(Cl)c1C)n(C)c(=O)c(=O)n2C,-2%

# Of the compounds above, these have a thiophene ring, fused or not:
SMILES,miR-21 reporter
CC1=C(C(=O)Nc2ccc(Cl)cc2)C(c2cccs2)n2nc(SCc3cccc(C)c3)nc2N1 (stereo unspecified),-2%
CCc1ccc(NC(=O)CC2C(=O)N(c3ccc(Cl)cc3)C(=O)N2Cc2cccs2)cc1 (stereo unspecified),0%
CCN1CCN(c2ncc3c(n2)CCN(Cc2ccc(C)s2)C3)CC1,-3%
Cc1c(C(=O)N(C)C)sc2c1c(=O)n(-c1ccc(Cl)c(Cl)c1)c(=O)n2CC(=O)N1CCCCC1C (stereo unspecified),-5%

# More records.
SMILES,miR-21 reporter
Fc1cc(Br)ccc1Nc1c2c(nc3nc(-c4cccs4)nn13)CCCC2,u
CCOC(=O)CSc1nc2ccc(NC(=O)c3ccccc3)cc2s1,-17%
COc1ccc(-c2cc(C(F)(F)F)n3nc(C(=O)O)c(Cl)c3n2)cc1OC,-9%
CN(C)c1ccc(CNC(=O)c2cnc3sc(N4CCCCCC4)nn3c2=O)cc1,-10%
COC(=O)c1ccc(NC(=O)CSc2nccn2Cc2ccc(Cl)cc2)cc1,1%
COc1ccc(NC(=O)C2CCN(C3=NS(=O)(=O)C(c4ccc(C)c(C)c4)=C3C)CC2)cc1OC,-1%
Cc1ccc2nc(COc3ccccc3NC(=O)c3ccc(F)cc3)cc(=O)n2c1,-1%
CCCCOc1ccc(C(=O)N2CCC(c3nc4ccccc4o3)CC2)cc1,1%
Cn1cccc1-c1cc2n(n1)CCC(=O)N2CCCC(=O)NCc1cccc(Cl)c1,-3%
CCOC(=O)c1c(NC(=O)COc2cccc(C(F)(F)F)c2)sc2c1CCC(C)C2 (stereo unspecified),-3%
COc1cccc(C(=O)Nc2ccccc2C(=O)OCc2cc(=O)n3nc(C)sc3n2)c1,-1%
Cc1ccc(-c2nnc(Nc3ccccc3)c3ccccc23)cc1S(=O)(=O)NCc1nc2ccccc2[nH]1,24%
O=C(c1cnn(-c2ccc(F)cc2)c1-n1cccc1)N1CCN(c2ccccc2)CC1,4%
Nc1c(C(=O)Nc2ccc(Cl)cc2F)sc2nc(-c3cccs3)ccc12,-55%
Cc1ccc2oc(-c3cccc(NC(=O)c4sc5c([N+](=O)[O-])cccc5c4Cl)c3)nc2c1,-6%
Cc1ccc(NC(=O)c2sc3ccccc3c2Cl)cc1,-49%
CCc1cccc(C)c1NC(=O)CCCn1c(C)c2cnn(-c3ccccc3)c(=O)c2c1C,16%
O=C(Cn1c(=O)n(-c2cccc(Cl)c2)c(=O)c2sc3ccccc3c21)NC1CCCCC1,-2%
Cc1cccc(C2=Nc3ccccc3N=C(c3cc(Cl)ccc3O)C2)c1,-2%
Cc1cc(Nc2ccc(Br)c(C)c2)n2nc(-c3ccco3)nc2n1,19%
CCc1ccc(NC(=O)Cn2cnc3sc(C)c(S(=O)(=O)N4CCC(C)CC4)c3c2=O)cc1,11%
CC(C)c1ccc(S(=O)(=O)Nc2cc3c(cc2NCc2ccccc2)n(C)c(=O)n3C)cc1,-5%
Cc1cccc(NC(=O)CSc2nc3ccc(NC(=O)COc4ccc(Cl)cc4)cc3s2)c1,6%
Cc1ccc(CNC(=O)Cn2ccn(-c3cc(C)cc(C)c3)c(=O)c2=O)cc1,2%
COc1cccc(CNC(=O)c2ccc(NC(=O)N3CCCCc4ccccc43)cc2)c1OC,-5%
CC(C)(C)OC(=O)N1CCC(c2c(C(=O)NCCN3CCc4ccccc4C3)cnn2-c2ccc(F)cc2F)CC1,11%
COc1ccc(-c2cn3cccnc3n2)cc1NC(=O)Nc1cc(C)ccc1C,-36%
CCOc1ccc(-c2n[nH]c3c2C(c2cccs2)N(c2ccc(Br)cc2)C3=O)cc1 (stereo unspecified),u
COc1ccc(CCNC(=O)c2cc(-c3ccc(C)c(C)c3)nc3ccccc23)cc1OC,8%
Cc1cc(Br)ccc1NC(=O)c1coc(=O)c2ccccc12,3%
COc1cccc(-n2ccnc2SCC(=O)Nc2c(C)cc(C)cc2C)c1,12%
COc1ccccc1C1C(C(=O)N2CCCCC2)=C(C)Nc2nc3ccccc3n21 (stereo unspecified),0%
O=C(c1ccccc1Cl)N1CCCCC1CCN1CCCCC1 (stereo unspecified),8%
CCOC(=O)c1cc(S(=O)(=O)NCc2cccc(Cl)c2)[nH]n1,0%
Cc1ccccc1NC(=O)Cn1c(=O)n(Cc2ccccc2)c(=O)c2sc3ccccc3c21,0%
CCOC(=O)c1cc(NC(=O)c2ccc(Cl)cc2)c(=O)n2c1oc1ccccc12,-4%
Cc1ccc(-n2ncc(C(=O)NCc3ccco3)c2C2CCN(C(=O)OC(C)(C)C)CC2)cc1C,14%
Cc1cccc(NC(c2ccccc2C)c2ccc3ccc(C)nc3c2O)n1 (stereo unspecified),21%
Clc1cccc(CSc2nncn3c2cc2sccc23)c1,-23%
CCc1ccccc1NS(=O)(=O)c1ccc2oc(=O)c3ncn(C)c3c2c1,2%
COc1cc(-c2nnc(SCCOc3ccc(Cl)cc3)o2)cc(OC)c1OC,6%
Cc1ccc(C(=O)O)cc1-n1c(C)ccc1-c1ccccc1,25%
Cc1ccc(C)c(NC(=O)Cn2c(=O)nc(-c3ccccc3)c3ccccc32)c1,2%
CCn1c(=O)cc(OCC(=O)N2CCN(c3ccc(OC)cc3)CC2)c2ccccc21,u
CC(C)(C)c1ccc(OCC(=O)Nc2c(C(=O)c3ccc(F)cc3)oc3ccccc23)cc1,-5%
COc1cccc(NC(=O)c2ccc3c(=O)n4nc(Nc5ccccc5OC)sc4nc3c2)c1,10%
Cc1ccc(-c2noc(-c3nnn(CC(=O)Nc4ccc(C)cc4Cl)c3N)n2)cc1,-1%
O=C(Cn1c(=O)oc2ccccc21)NCc1ccccc1Cl,-41%
O=c1c2ccccc2n2c(-c3ccc(F)c(F)c3)nnc2n1CCc1ccccc1,3%
CCOC(=O)c1scc(-c2ccccc2)c1S(=O)(=O)N1CCN(c2ccccc2OC)CC1,25%
Cc1ccc(S(=O)(=O)c2nc(-c3ccccc3)oc2N2CCCCCC2)cc1,6%
Cc1cccc(NC(=O)CSc2nc(=O)n(Cc3ccncc3)c3c2CCC3)c1C,0%
CCC(C)n1c(=O)c2sccc2n2c(CCCC(=O)NCc3ccccc3Cl)nnc12 (stereo unspecified),-1%
CCc1nnc(NC(=O)CSc2nccn2Cc2ccccc2)s1,-2%
COc1ccccc1-c1ccnc2[nH]n(-c3ccccc3)c(=O)c12,2%
CCCn1c(=N)c(C(=O)NCc2ccco2)cc2c(=O)n3cc(C)ccc3nc21,-2%
O=C(NCCS(=O)(=O)N1CCN(c2ccc(F)cc2)CC1)c1cc(=O)c2ccccc2o1,1%
O=C(CC1N=C2c3ccccc3N=C(SCc3cccc(F)c3)N2C1=O)NCc1cccs1 (stereo unspecified),3%
CCOC(=O)c1ccc(NC(=O)Cn2nc(C)c3nn(-c4ccc(Cl)cc4)c(C)c3c2=O)cc1,-1%
CCc1ccccc1NC(=O)CN1C(=O)CCc2cc(S(=O)(=O)N3CCCCC3)ccc21,-7%
# The results go on:
SMILES,miR-21 reporter
CC(=O)c1cccc(NC(=O)c2ccc3c(c2)N(Cc2ccc(C)cc2)CCS3)c1,-3%
Cc1ccc(C(=O)N2CCN(c3ccccc3)CC2)cc1NC(=O)c1nsc2ccccc12,11%
Cc1cc(C)cc(N2CC(c3nnc(NC(=O)c4ccco4)s3)CC2=O)c1 (stereo unspecified),-7%
C=CCc1ccccc1OCCSc1nc(-c2ccc(C(C)(C)C)cc2)nc2cc(=O)[nH]n12,-24%
CCN(C(=O)c1cc2cc(Br)cc(OC)c2oc1=O)c1ccccc1,2%
COc1ccc(N(CC(=O)NC(C)c2ccccc2)S(=O)(=O)c2c(C)nn(C)c2C)cc1 (stereo unspecified),-8%
O=C(NC1CCCCC1)c1ccc2c(c1)N(Cc1ccccc1F)C(=O)c1ccccc1S2,-7%
COc1cc2c(cc1OC)C(c1ccc(F)cc1)N(c1ccccc1)C(=O)C2 (stereo unspecified),-18%
Cc1ccccc1CNC(=O)c1oc2c(c1C)-c1nn(Cc3ccc(Cl)cc3)cc1CC2,-1%
COC(=O)c1cc(-c2ccc(C)cc2)c2c(=O)n(C)c(=O)n(C)c2n1,-2%
CC(C)c1ccc(CNc2n[nH]c(-c3ccco3)n2)cc1,-61%
CCN(CCCNC(=O)CSc1cc(=O)n(CC)c2ccccc12)c1cccc(C)c1,27%
Cc1c(CC(=O)N2CCCCC2)c(=O)oc2c(C)c3occ(C(C)(C)C)c3cc12,-4%
COc1ccc(N2CCN(S(=O)(=O)c3ccc(F)c(C(=O)Nc4ccccc4Cl)c3)CC2)cc1,-1%
